# E coli growth = blocks Escherichia coli growth. 0.21% of 330,000 active. OD600 absorbance (no concentration beside the values). AID 1053175. OD600, 23 h; hits give low values;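 active means OD600 absorbance below the run mean of sample wells minus 3.6 SD, in any replicate, cut at about 0.56 in these data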;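 further: stock transfer was 300 nL into about 60 µL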
# Beta2AR agonist = human beta-2 adrenergic receptor agonism by FAP | 0.43% of 340,000 active | response, % (concentration not given with the values) | P07550 | Am2.2-beta2AR cells, FAP receptor internalization, flow cytometry; reference of the scale not given here;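 active means response above a set limit, near 3 SD of response in nonfluorescent compounds, cut at about 42% in these data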;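 further: stock transfer was 100 nL into about 11 µL; a reference agonist was the positive control; negative values mostly stem from fluorescent compounds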
# rRNA inh HTS = inhibitors of bacterial rRNA selective over humanized ribosomes; 1.6% of 350,000 active; GFP signal change (wild-type ribosome), % (no concentration beside the values); AID 720706; E. coli WT GFP vs humanized-ribosome RFP mutants, fluorescence, 24 h; hits give low values; DMSO median 0, no signal -100;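 active means significant combined selectivity score with lowered wild-type GFP, culture density cut under 30%, mutant RFP and density less affected; inactive means any of these conditions unmet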; further: one replicate is shown; some compounds called inactive have numbers as strong as hits
# ALR H2O2 inh = human ALR oxidase inhibition via reduced H2O2; P55789; purified ALR, DTT oxidation, H2O2 HRP-luminol luminescence; inhibition, % (no concentration beside the values); 3.8% of 290,000 active; AID 485317;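 active means mean and each replicate at 75% or more; inconclusive means only one of the two met; inactive means neither met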;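 further: stock transfer was 7.5 nL into about 7.5 µL; 0% = neutral wells and 100% = wells with inactivated enzyme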
# Target sequence (P55789 whole entry, looked up): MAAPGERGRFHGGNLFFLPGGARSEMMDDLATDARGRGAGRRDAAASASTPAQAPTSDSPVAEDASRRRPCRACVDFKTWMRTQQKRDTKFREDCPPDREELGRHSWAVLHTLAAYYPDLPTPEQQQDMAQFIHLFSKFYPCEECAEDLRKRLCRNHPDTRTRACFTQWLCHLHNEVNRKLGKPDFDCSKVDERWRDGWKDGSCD
# HNF4A DNA FP = change in binding of human HNF4 alpha to DNA | 0.3% of 360,000 active | HNF4a-FITC DNA binding, fluorescence polarization, 1 h | P41235 | activity change, % at 10 µM; in the data active means activity change above about 30%, passing the limit was not always enough;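 further: controls were the assay level and a saturating level of protein; the project sought stronger binding though the title names inhibitors; some compounds called inactive have numbers as strong as hits; positive values seem to mean higher polarization but the record does not say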
# UCH37 inh = inhibitors of human deubiquitinating enzyme UCH37 | Q9Y5K5 | purified proteasome/UCH37, Ub-AMC cleavage fluorescence | inhibition, % (test concentration not listed) | 0.33% of 330,000 active | AID 588478;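 active means mean of two replicates above 20%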;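 further: 0% = compound-free wells with enzyme and 100% = wells lacking proteasome; stock transfer was 100 nL into about 20 µL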
# Target sequence (Q9Y5K5 whole entry, looked up): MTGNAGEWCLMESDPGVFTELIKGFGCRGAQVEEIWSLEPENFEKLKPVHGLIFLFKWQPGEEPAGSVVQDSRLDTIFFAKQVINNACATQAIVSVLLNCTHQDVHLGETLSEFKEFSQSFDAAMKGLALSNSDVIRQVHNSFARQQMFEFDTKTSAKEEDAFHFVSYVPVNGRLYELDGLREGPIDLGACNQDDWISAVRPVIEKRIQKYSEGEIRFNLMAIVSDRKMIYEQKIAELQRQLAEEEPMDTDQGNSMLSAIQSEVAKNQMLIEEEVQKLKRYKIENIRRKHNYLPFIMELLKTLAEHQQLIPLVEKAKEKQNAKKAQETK
#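 Material: human UCH37 enzyme supplied as purified proteasome complex. Measure: % inhibition of Ub-AMC cleavage fluorescence. Medium: pH 7.4 Tris-HCl (50 mM) with ovalbumin, ATP-MgCl2, DTT. Times: 30 min preincubation with enzyme, 25 min cleavage at room temperature. Detection: AMC fluorescence intensity at 355/460 nm.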
# FGF22 binding = shifts melting point of recombinant human FGF22; Q9HCT0; recombinant FGF22 thermal shift, SYPRO orange fluorescence; percent of sucrose octasulfate shift, DMSO zero; calls only at 9.99 µM; 1.5% of 340,000 active; AID 651658;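 active means melting point raised past a set limit in the mean and every replicate; inconclusive means no clear call; three in four hits are not shown here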
# Target sequence (Q9HCT0 whole entry, looked up): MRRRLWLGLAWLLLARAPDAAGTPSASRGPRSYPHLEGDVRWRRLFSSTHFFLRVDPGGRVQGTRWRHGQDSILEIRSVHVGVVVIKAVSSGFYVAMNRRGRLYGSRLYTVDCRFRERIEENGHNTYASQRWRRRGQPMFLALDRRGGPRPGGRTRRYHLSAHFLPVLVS
# rRNA inh HTS OD600 = further read-out of rRNA inh HTS, marked with its call; OD600 change, %; measured here: OD600 growth;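 optical density of the mix in the first replicate; 0 = DMSO median and -100 = no signal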
# rRNA inh HTS RFP = further read-out of rRNA inh HTS, marked with its call; RFP signal change, %; measured here: RFP humanized mutant strains;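 first replicate; 0 = DMSO median and -100 = no signal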
# The depositor's hits bear a star; i = inactive; ? = inconclusive; · = not tested or not shown; & = joins results of further samples. These rows are one share of the data; rates above refer to the full screens.
SMILES,E coli growth,Beta2AR agonist,rRNA inh HTS,rRNA inh HTS OD600,rRNA inh HTS RFP,ALR H2O2 inh,HNF4A DNA FP,UCH37 inh,FGF22 binding
COc1cc2c(C#N)c(N3CCN(C)CC3)nc(N)c2c(N)n1,0.609,13.0,·,·,·,21.1,-0.6,-349.4,·
COc1ccc(CCNC(C)=O)cc1,0.667,1.2,·,·,·,-4.1,-0.5,-1.9,·
Nc1ncnc2c1ncn2[C@@H]1O[C@H](C(=O)N2CCCN(Cc3ccccc3F)CC2)[C@@H](O)[C@H]1O,·,·,1.8,3.6,-2.0,·,-13.4,·,i
COc1ccc(C(=O)O/N=C(\C)c2nccs2)cc1,·,-6.1,·,·,·,-11.8,4.6,·,·
CC(C)Cn1c(-c2ccc(Cl)cc2)cnc1SCC(=O)N1CCOCC1,0.696,0.6,-8.1,-11.5,-0.6,-4.0,1.0,2.2,·
Cc1ccc(OCC(=O)Nc2ccc3oc(=O)ccc3c2)cc1,0.621,11.2,4.8,11.2,3.1,-0.4,-0.5,-14.8,i
CCOc1ccc(C2=Nn3cnnc3SC2)cc1,0.626,-5.0,·,·,·,-24.2,3.0,6.0,·
CC(=O)N1c2ccccc2NC2=C(C(=O)CCC2)C1c1cccnc1 (configuration not stated),0.725,0.5,·,·,·,-1.3,0.1,5.7,·
NS(=O)(=O)c1ccc(CCNC(=O)CNS(=O)(=O)c2cccc(Br)c2)cc1,0.661,-4.0,1.4,7.9,-0.8,4.4,0.8,5.7,i
Cc1c(C(=O)OCC(=O)c2ccc3c(c2)OCCO3)oc2ccccc12,0.726,3.6,·,·,·,-0.9,3.4,3.8,·
Nc1c(C(=O)CSc2nnc(Nc3ccc(F)cc3)s2)c(=O)[nH]c(=O)n1C1CC1,0.713,-1.8,20.3,9.6,8.2,9.9,-1.6,-3.2,i
CON(C)S(=O)(=O)NC(=O)C1=C(N2CCCC2)COC1=O,0.781,2.1,10.6,10.5,2.0,-7.0,5.3,5.5,i
O=C(ON=C1CCN(S(=O)(=O)c2ccccc2)CC1)c1ccccc1,0.739,0.7,·,·,·,-20.4,1.1,2.5,·
CNC(=O)c1ccccc1Sc1cccc2cccc(C(=O)O)c12,0.696,2.0,4.7,18.8,0.2,-24.1,-1.7,5.0,i
CCc1noc(C)c1C(=O)NC1CCCc2c1cnn2-c1cc(C)cc(C)c1 (configuration not stated),0.694,3.7,0.0,5.8,0.7,-8.2,-1.9,0.6,i

# 9 of the compounds above, with the structure last.
E coli growth,Beta2AR agonist,rRNA inh HTS,rRNA inh HTS OD600,rRNA inh HTS RFP,ALR H2O2 inh,HNF4A DNA FP,UCH37 inh,FGF22 binding,Structure
0.626,-5.0,·,·,·,-24.2,3.0,6.0,·,CCOc1ccc(C2=Nn3cnnc3SC2)cc1
0.725,0.5,·,·,·,-1.3,0.1,5.7,·,CC(=O)N1c2ccccc2NC2=C(C(=O)CCC2)C1c1cccnc1 (configuration not stated)
0.661,-4.0,1.4,7.9,-0.8,4.4,0.8,5.7,i,NS(=O)(=O)c1ccc(CCNC(=O)CNS(=O)(=O)c2cccc(Br)c2)cc1
0.726,3.6,·,·,·,-0.9,3.4,3.8,·,Cc1c(C(=O)OCC(=O)c2ccc3c(c2)OCCO3)oc2ccccc12
0.713,-1.8,20.3,9.6,8.2,9.9,-1.6,-3.2,i,Nc1c(C(=O)CSc2nnc(Nc3ccc(F)cc3)s2)c(=O)[nH]c(=O)n1C1CC1
0.781,2.1,10.6,10.5,2.0,-7.0,5.3,5.5,i,CON(C)S(=O)(=O)NC(=O)C1=C(N2CCCC2)COC1=O
0.739,0.7,·,·,·,-20.4,1.1,2.5,·,O=C(ON=C1CCN(S(=O)(=O)c2ccccc2)CC1)c1ccccc1
0.696,2.0,4.7,18.8,0.2,-24.1,-1.7,5.0,i,CNC(=O)c1ccccc1Sc1cccc2cccc(C(=O)O)c12
0.694,3.7,0.0,5.8,0.7,-8.2,-1.9,0.6,i,CCc1noc(C)c1C(=O)NC1CCCc2c1cnn2-c1cc(C)cc(C)c1 (configuration not stated)

# (more compounds)
SMILES,E coli growth,Beta2AR agonist,rRNA inh HTS,rRNA inh HTS OD600,rRNA inh HTS RFP,ALR H2O2 inh,HNF4A DNA FP,UCH37 inh,FGF22 binding
COc1ccc(OC)c(C(=O)CSc2nnc(Cc3cccs3)n2C)c1,0.771,-1.9,·,·,·,-3.0,-1.2,-4.6,·
COc1ccc(CCN2C(=O)CS/C2=N\NC(=O)c2ccc(C(C)(C)C)cc2)cc1OC,·,1.1,·,·,·,-23.8,-0.6,·,·
COc1ccc(N(CC(=O)O)S(=O)(=O)c2c(C)n[nH]c2C)cc1,0.686,-2.4,·,·,·,-1.7,-1.1,-1.0,·
c1ccc(CSc2ncnc3c2sc2nc(N4CCOCC4)c4c(c23)CCCC4)cc1,0.738,10.1,·,·,·,-14.9,-0.8,-25.2,·
O=C(O)CCCN1C(=O)NC2NC(=O)NC21 (configuration not stated),0.729,5.9,·,·,·,-1.1,-1.6,1.3,·
O=C(CN(c1cccc([N+](=O)[O-])c1)S(=O)(=O)c1ccccc1)NCc1cccnc1,0.678,-4.5,-2.8,9.5,-1.1,-1.3,2.8,1.9,i
Cc1ccc(-c2nn(-c3cccc(F)c3)cc2CNCCc2ccncc2)o1,0.685,1.7,1.8,11.2,8.2,-14.7,12.3,-6.1,i
CN(Cc1ccccc1)C(=O)c1[nH]cnc1C(=O)N[C@@H](Cc1ccccc1)C(=O)OC(C)(C)C,·,-1.2,-24.4,-29.7,21.4,2.0,-0.2,35.3*,i
O=C(O)c1ccccc1NC(=O)C1CCN(S(=O)(=O)c2ccc3c(c2)OCCO3)CC1,·,·,-7.7,-1.2,3.2,·,-1.1,·,i
COc1cc(Br)c(C2C(C#N)=C(N)Oc3n[nH]c(-c4cccnc4)c32)cc1OC (configuration not stated),0.71,0.6,13.3,5.0,-3.1,4.7,-2.6,5.8,i
CCC(=O)Nc1cccc(-n2nnnc2SCC(=O)N2CCCCC2)c1,0.684,-18.4,-6.0,-7.9,-2.1,-3.2,-1.8,7.8,i
O=C(NCc1cccnc1)c1ccc(S(=O)(=O)N2CCOCC2)cc1,0.734,17.6,14.1,11.7,2.5,1.6,-0.3,4.3,i
O=C(CSc1nnnn1-c1cccc(F)c1)NC1CC1,0.681,-2.5,8.0,13.9,1.1,-2.4,0.5,1.4,i
CCOc1ccc(NC(=S)Nc2cccnc2)cc1,·,-2.8,1.3,11.6,3.8,-2.0,2.1,·,i
COCCCN1C(=O)C(CC(=O)NC2CCCCC2)CC(C(=O)N2CCOCC2)=C1C (configuration not stated),·,·,6.1,9.3,-0.3,·,5.6,·,i
Cc1cc(C(=O)NNC(=S)Nc2ccccc2)nn1C,0.704,-4.2,7.7,4.0,0.5,47.6,-3.1,2.6,i
Cc1nccn1CC(=O)c1ccccc1,·,·,4.1,12.2,-2.5,·,2.9,·,i
CC(=O)c1c(C)[nH]c(C(=O)NCc2ccc(C)cc2)c1C,0.707,1.6,·,·,·,-3.1,-1.8,4.2,·
CC1Sc2ccc(S(=O)(=O)CCC(=O)N3CCCC3)cc2NC1=O (configuration not stated),0.679,-3.5,1.7,2.5,-2.8,-2.3,-1.2,5.2,i
Cc1ccc(N(CC(=O)NCCc2ccc(F)cc2)S(=O)(=O)c2ccc(Cl)c([N+](=O)[O-])c2)c(C)c1,0.762,31.0,·,·,·,-6.5,1.3,1.2,i
Cc1ccc(NCC(=O)N=Nc2c(O)n(C)c3ccccc23)cc1,0.644,-7.3,-18.4,-13.9,-2.4,9.6,0.2,5.7,i
CC1=C(C(N)=O)C(c2cccs2)NC(=S)N1 (configuration not stated),0.667,2.3,20.8,11.3,0.1,1.5,0.0,2.3,·
CC(C)c1ccc2oc(=O)cc(CN3CCCCC3)c2c1,0.659,-30.5,-21.4*,-10.4*,-2.1*,1.5,-0.8,0.7,i
O=C(N/N=C/c1cc(Cl)ccc1O)c1ccncc1,·,-0.7,-37.5,-50.0,-3.9,·,6.8,·,i
Cc1ccc(S(=O)(=O)c2nc(S(C)(=O)=O)sc2N2CCN(C)CC2)cc1,0.673,-1.7,8.9,6.7,-1.1,2.2,4.2,3.8,i
CC(C)CCNC(=O)c1ccc(C2SCC(=O)N2Cc2ccco2)cc1 (configuration not stated),0.729,8.4,·,·,·,·,-3.8,4.5,·
Cn1c(=O)cc(OCCCC(=O)Nc2ccc3c(c2)OCCO3)c2ccccc21,0.737,-4.7,·,·,·,-1.4,4.5,2.2,·
O=C(C[C@H]1CC[C@H]2[C@@H](COC[C@@H](O)CN2Cc2cc(F)ccc2F)O1)NCc1ccc(Cl)cc1,·,·,-21.4&-37.0,-59.4&-44.2,7.0&-7.7,·,-2.3,·,i
O=C(Nc1cccc(C(=O)Nc2ccccc2C(=O)O)c1)c1cccc(Cl)c1,0.629,-2.5,-29.3,-33.1,-5.9,-3.8,0.3,0.0,·
Cc1cc(C)cc(-n2c(C)cc(C=C(C#N)C#N)c2C)c1,0.706,1.2,·,·,·,-3.6,-3.7,-6.2,·
Cc1ccc(NC(=O)C2(C)CCN2Cc2csc3ccccc23)cc1 (configuration not stated),·,·,0.3,-23.8,-2.7,·,-1.9,·,i
S=c1[nH]nc(C2CCCCC2)n1Cc1ccccc1,0.667,-3.5,-6.6,0.4,-0.8,68.0,2.6,0.8,i
CC(=O)Nc1ccc(S(=O)(=O)N2CCC(N3CCCCC3)CC2)cc1,·,6.7,10.3,4.8,-1.9,2.7,3.2,·,i
O=C1O/C(=C/c2ccccc2)c2ccccc21,0.61,-6.5,-45.5,-55.8,-18.5,2.1,-2.8,-20.4,i
COCCNC(=O)c1onc(CSc2ccc(F)cc2)c1C(=O)NCCOC,0.683,-8.1,10.1,5.6,0.3,-0.8,-0.9,-0.3,i
C[C@@H]1CCCCO[C@@H](CN(C)C(=O)CCCN(C)C)[C@@H](C)CN([C@H](C)CO)C(=O)c2cc(N(C)C)ccc2O1,·,·,3.2&16.8,6.1&15.9,-1.1&-1.0,·,5.1,·,i
CC(O)CNC1c2ccccc2CC1O (configuration not stated),0.687,20.4,13.4,8.5,5.2,·,3.9,0.2,·
Cc1cc(/C=C2\C(=N)N3N=C(CC(=O)N4CCOCC4)SC3=NC2=O)c(C)n1Cc1ccccc1,0.662,8.0,19.9,26.1,11.6,20.1,1.4,-44.6,·
CS(=O)(=O)CCC(C(=O)OCC(=O)c1ccc(Cl)cc1)N1C(=O)c2ccccc2C1=O (configuration not stated),0.65,-3.5,8.1,1.0,1.1,-25.0,-0.1,1.0,i
Cc1ccccc1NC(=O)c1cccc(S(=O)(=O)N2CCCCC2)c1,0.696,-3.2,-1.4,0.7,2.8,-5.1,0.4,6.2,i
O=C(NC(=S)Nc1ccccn1)c1ccco1,0.645,-4.9,·,·,·,?,-1.4,2.3,·
CCCc1nnc(NC(=O)c2ccncc2)s1,0.708,1.7,-7.2,4.5,-6.2,-0.4,-3.8,2.0,i
